# Vaccinia mCherry = qHTS for Stage-Specific Inhibitors of Vaccinia Orthopoxvirus: mCherry Reporter Primary qHTS; Vaccinia virus mCherry reporter infection, fluorescence; about a quarter of the inactives have no number; Potency, µM (top dose mostly 36.5 µM), inactives show top-dose activity change, negative = inhibition, usual class: inhibitors; actives 0.63% (n = 310,000); AID 720579, 2013; active = well fitted inhibition curve with a large enough effect; inconclusive = small, poorly fitted or top-dose-only effect; inactive = no such curve, though single readings can be large or run the other way; tested in A549 cells; further: nearly all actives have a fitted effect of over 35% in size; inactives centre near -10
# Vaccinia Venus = qHTS for Stage-Specific Inhibitors of Vaccinia Orthopoxvirus: Venus Reporter Primary qHTS | Vaccinia virus Venus reporter expression, fluorescence | Potency, µM (doses to about 36.5 µM), inactives show top-dose activity change, negative = inhibition, hits mostly inhibitors | actives 0.46% (n = 330,000); active means well fitted inhibition curve with a large enough effect; inconclusive means small, poorly fitted or top-dose-only effect; inactive means no such curve, though single readings can be large or run the other way; tested in A549 cells; further: nearly all actives have a fitted effect of over 30% in size; inactives centre near -10
# * hit, by the source's call; i = inactive; ? = inconclusive; . = not tested or not shown; & = joins results of further samples; [ ] = another dose, or the depositor's remark. On the % scale 0 is the no-effect control and ±100 the full control effect; potency means the concentration at half of the fitted maximal effect.
# Results follow in this order: Vaccinia mCherry, Vaccinia Venus
COc1cc(OC)cc(C(=O)Nc2sc3c(c2C(N)=O)CCC3)c1
    ?, ?
O=C1N=C(N2CCOCC2)S/C1=C\c1cccs1
    0%, -21%
COc1ccc2oc(C(=O)Nc3nnc(C)s3)c(C)c2c1
    -18%, 0%
COc1cccc(CNC(=O)C(CC(C)C)NS(=O)(=O)c2ccc3c(c2)oc(=O)n3C)c1 (stereo not drawn)
    -10%, -13%
Cc1cccc(CSc2nnc([C@@H]3CCCN3)o2)c1
    i[7.34 µM], -13%[7.34 µM]
O=C(NCc1ccc2c(c1)OCO2)c1ccc2c(c1)N(Cc1c(F)cccc1Cl)C(=O)c1ccccc1S2
    -2%[7.34 µM], 3%[7.34 µM]
COC(=O)Nc1sc(C)nc1-c1ccccc1
    -2%, -6%
Cc1ccccc1CC1(CO)CCCN(C(=O)c2ccccc2N(C)C)C1 (stereo not drawn)
    -7%, -4%
CN(C)c1ccc(/C=C2\N=C(c3ccc(Cl)c([N+](=O)[O-])c3)NC2=O)cc1
    -8%, 4%
COc1ccc(N2CCN(C(=O)C3CC(=O)N(c4ccc(C)cc4)C3)CC2)cc1 (stereo not drawn)
    -14%, -2%
COc1ccc(C(=O)NCc2nnc(SCC(=O)Nc3ccccc3)n2-c2ccc(F)cc2)cc1
    -3%, -19%
CS(=O)c1ccccc1-c1nc(-c2cc(C(F)(F)F)cc(C(F)(F)F)c2)no1 (stereo not drawn)
    i, 0%
COc1ccc2nc3ccccc3[n+]([O-])c2c1
    -10%, -10%
COc1cc2c(cc1OC)C(C)N(CCc1ccc(Cl)cc1)CC2 (stereo not drawn)
    -16%, -9%
O=C(CN1CCCCC1)N/N=C/c1cccc(Cl)c1
    -29%, -7%
O=S(=O)(NCC1CCCO1)c1ccc(S(=O)(=O)N(Cc2ccccn2)C2CC2)cc1 (stereo not drawn)
    -10%, -14%
O=C(NNC(=O)c1cccs1)c1ccccn1
    ?, -24%
CCc1nnc(NS(=O)(=O)c2ccc(N=Cc3c(C)[nH]n(-c4ccc(Cl)cc4)c3=O)cc2)s1
    -9%, -5%
CCOC(=O)N1CCN(C(=S)NC(=O)/C=C/c2ccc(C)cc2)CC1
    i, 1%
Fc1ccc(Nc2nc(-c3ccc(F)cc3)c3c(n2)-c2ccccc2OC3)cc1
    -12%, -5%
O=C(COC(=O)c1cc(Cl)ccc1[N+](=O)[O-])NCc1ccc(Cl)cc1Cl
    -11%, -6%
O=C(Cc1ccccc1)Nc1c[nH]c(=O)[nH]c1=O
    -14%, -6%
C[C@H](CO)N1C[C@H](C)[C@H](CN(C)CC2CC2)Oc2ccc(NC(=O)CCN3CCOCC3)cc2C1=O
    i, -10%
CCOc1ccc(S(=O)(=O)NC2CC2)cc1
    -11%, -3%
O=C(CN1C(=O)CSc2ccc(S(=O)(=O)N3CCOCC3)cc21)NCCCN1CCCCC1
    13%[7.34 µM], 0%[7.34 µM]
C[C@H](CO)NC(=O)c1nc[nH]c1C(=O)N[C@@H](C)c1ccccc1
    -29%, -14%
Cn1c(C(=O)O)c(CC(=O)NCc2cccnc2)c2ccccc21
    -13%, -8%
CN(C)C(=O)N1CCc2ccc([N+](=O)[O-])cc21
    i, -16%
O=C(Nc1cc(S(=O)(=O)N2CCOCC2)ccc1OCC(F)(F)F)c1ccc(N2CCCC2=O)cc1
    i, -10%
CCCn1c(=O)c2sccc2n2c(CCCC(=O)NCc3ccccc3)nnc12
    -4%, -2%
O=C(CSc1ccncc1)NCC1Cc2cccc(-c3cncnc3)c2O1 (stereo not drawn)
    i, -9%
C[C@@H](C(=O)Nc1ccc2ccccc2c1)[C@@H]1C[C@@]1(C)[C@@H](NC(=O)c1cnccn1)c1ccccc1
    ?, -22%
CC(/C=N/Nc1nc(C)cc(C)n1)=C\c1ccc(C(C)C)cc1
    -2%, -8%
Cc1nn(CC(=O)NC2CCCCC2)c(C)c1[N+](=O)[O-]
    -3%, -15%
Cc1cccc(C(=O)NCC(=O)N2CCN(S(=O)(=O)c3cc(C)ccc3C)CC2)c1
    -28%, -22%
O=C(NCC1CCCN1S(=O)(=O)c1cccs1)C(=O)Nc1ccc(F)cc1 (stereo not drawn)
    -7%, -20%
N#Cc1c(-c2ccccc2Cl)cc(-c2ccccc2)nc1Br
    i, -13%
COc1cccc(CCc2nnc(CCC(=O)NCCc3cccc(C)n3)o2)c1
    -6%, -4%
CN(C)C(C(=O)NC1CCCCC1)c1ccc(Cl)cc1 (stereo not drawn)
    -11%, -3%
CN(C)C(/C=C/Nc1cccc([N+](=O)[O-])c1)=C(C#N)C#N
    i, -7%
C[C@H]1CN([C@@H](C)CO)C(=O)CCCn2nncc2CO[C@H]1CN(C)C(=O)c1cc(-c2ccccc2)on1
    -24%, -5%
O=C(NCCC1=CCCCC1)C1CCN(C(=O)c2ccc(Br)cc2)CC1
    i, -12%
Cc1cc(C)c2nc(NC(=O)[C@@H](NC(=O)c3cccc(S(=O)(=O)N4CCOCC4)c3)C(C)C)sc2c1
    ?, ?
COc1cc(C2c3[nH]c4ccccc4c3C[C@H]3C(=O)N(C4CC4)CC(=O)N23)ccc1OC(C)C (stereo partly drawn)
    -7%, -1%
CCN1CCN(CC(=O)N2CCCC(C(=O)c3ccc(Oc4ccccc4)cc3)C2)CC1 (stereo not drawn)
    -5%, ?
CCCc1cc(=O)[nH]c(SCC(=O)N2CCC(C(=O)OCC)CC2)n1
    -8%, -3%
Cc1c(-n2c(SCC(=O)C(C)(C)C)nc3ccccc3c2=O)c(=O)n(-c2ccccc2)n1C
    0%, 10%
COc1ccc(Nc2nc3ccccc3n3nnnc23)cc1
    -3%, -13%
Cc1nc(-c2ccc(Cl)cc2)sc1CCNC(=O)C(=O)Nc1ccccc1C#N
    -1%, 7%
CCOc1ccc(C)cc1S(=O)(=O)n1nc(C)cc1C
    i, -10%
O=C(NC1CCCCCC1)c1ccccc1-c1ccccc1
    -21%, -16%
O=C(CSc1nnc(-c2ccco2)n1Cc1ccccc1)NC(=O)NCc1ccccc1
    -29%, -21%
O=C(O)CCc1ccc(-c2ccc(Cl)cc2)n1-c1cccc(C(F)(F)F)c1
    -16%, -12%
CN1CCc2c(sc3c2C(=O)NC(c2ccc(-c4ccc(Cl)cc4)o2)N3)C1 (stereo not drawn)
    -10%, 16%
CC(C)NC(=O)c1onc(CSc2cccc(Cl)c2)c1C(=O)O
    i, -11%
Cc1ccc(-n2c(SCC(=O)NCc3ccc(F)cc3)nc3c([nH]c4ccccc43)c2=O)cc1
    -10%, -17%
CCn1c(C)nc2cc(C(N)=O)ccc21
    -16%, -9%
C/C(=N\NC(=O)c1ccccc1O)c1ccc(NC(=O)c2ccccc2)cc1
    ?, -18%
CC(C)c1ccc(OCC(O)Cn2cnc3ccccc32)cc1 (stereo not drawn)
    ., ?
COCCNC(=O)c1ccc(-n2c(SCc3cccnc3)nc3ccccc3c2=O)cc1
    -14%, -6%

# Carrying on.
# Results follow in this order: Vaccinia mCherry, Vaccinia Venus
Cc1cc(C=NCCO)c(C)n1-c1cc(Cl)ccc1Cl
    5%, 3%
O=C(Cn1c(SCC(=O)N2CCc3ccccc32)nc2ccccc21)NC1CCCC1
    ., -13%
O=C(Nc1ccc(Cl)c(Cl)c1)C1CC(=O)N(c2ccc(Br)cc2)C1 (stereo not drawn)
    -25%, -21%
C=CCN(C(=O)CC(NC(C)=O)c1ccccc1)c1nc(-c2ccc(S(C)(=O)=O)cc2)cs1 (stereo not drawn)
    ?, -28%
COc1ccc(CN2C(=O)CSCC2(C)C(=O)Nc2c(C)cccc2C)cc1OC (stereo not drawn)
    -10%, -3%
CC1(c2nnnn2Cc2ccccc2)CCC(=O)N1CCc1ccccc1F (stereo not drawn)
    -10%, -2%
O=C1C2C(c3ccccc3)=NN(c3ccccc3)C2C(=O)N1c1ccccc1 (stereo not drawn)
    -6%, -3%
O=c1c(Cl)c(NS(=O)(=O)c2ccccc2)cnn1-c1ccccc1
    -11%, 6%
COc1ccc(Nc2nnc(SCC(=O)Nc3cc(C)on3)s2)cc1
    -5%, 1%
CCOC(=O)C1=C(C)c2ccccc2OC1(CC)C(=O)OCC (stereo not drawn)
    i, 0%
Cc1ccccc1CNC(=O)C1CCN(c2nn3cc(-c4ccc(F)cc4)nc3s2)CC1
    -4%, -8%
O=C(c1cc(-c2ccc(Cl)s2)nc2ccccc12)N1CCCC1
    -9%, 0%
CCOc1cc(/C=N/NC(=O)C(=O)NCc2cccnc2)ccc1O
    -7%, -12%
CCc1nc(SCC(=O)Nc2nnc(C(C)C)s2)n[nH]1
    i, -4%
COc1ccc(N2C(=O)C(Cl)=C(Nc3ccccc3O)C2=O)cc1
    ., -3%
CC(C)CN(C(=O)CN(C)CC(=O)Nc1ccc(Cl)c(C(F)(F)F)c1)c1c(N)n(CC(C)C)c(=O)[nH]c1=O
    -12%, -3%
COc1ccccc1C(=O)NNC(=O)c1ccc(NC(=O)C(C)C)cc1
    i, -7%
COCCn1c(C)cc(C(=O)COC(=O)c2c(C)nn(Cc3ccccc3)c2C)c1C
    ?, -21%
O=C1CC(c2ccccc2)n2nc(NC(=O)c3cccs3)nc2N1 (stereo not drawn)
    -14%, -9%
O=C(Nc1nc(-c2cccnc2)cs1)c1cccc([N+](=O)[O-])c1
    -16%, -11%
O=C(CNC(=O)c1cccc(-n2cccc2)c1)Nc1ccccc1Br
    ?, -10%
C=CCn1c(SCC(=O)/C(C#N)=C(\C)N)nc2sc(C)c(C)c2c1=O
    ?, -25%
NC(=O)C1=C[C@H](c2ccc(C(F)(F)F)cc2)C[C@H](OCc2ccc(CO)cc2)O1
    i, -8%
CCCC(=O)Nc1nnc(SCC(=O)N2C(C)CCCC2C)s1 (stereo not drawn)
    i, -5%
Cn1c(SCC(=O)c2ccc(O)cc2O)nnc1-c1ccccc1
    2%, -10%
Cc1c(CC(=O)O)c(=O)oc2cc3oc4c(c3cc12)CCCC4
    i, -15%
CC(C)(C)OC(=O)NNC(=S)NC1CCCCC1
    -7%, -14%
COC(=O)C1=CN(c2ccc(OC)cc2OC)C(N)=C(C#N)C1c1ccccc1F (stereo not drawn)
    ?, -18%
C=CCn1c(SCc2cccc(F)c2)nc2cc(C(=O)N3CCC(C(N)=O)CC3)ccc2c1=O
    0%, -18%
O=C(NNc1ncnc2sccc12)c1ccc(Cl)cc1
    ?, -26%
CN(C)Cc1cc(C(C)(C)C)cc(C(C)(C)C)c1O
    -10%, -4%
CCOc1ccc(S(=O)(=O)N2CCCCC2)cc1NC(=O)CN1C(=O)NC(CC)(c2ccccc2)C1=O (stereo not drawn)
    -13%, -19%
COc1ccc(CN2CCNC(=O)C2CC(=O)N(C)CC2CCOCC2)cc1C (stereo not drawn)
    -2%, -13%
O=C(O)c1ccccc1C(=O)Nc1cc(-c2ccccc2)[nH]n1
    -5%, 4%
CCN(CC)CCOC(=O)C1(C2CCCCC2)CCCCC1
    -5%, -19%&-13%
O=C(NCNC(=O)NC1C(=O)NC(=O)N1CO)NC1C(=O)NC(=O)N1CO (stereo not drawn)
    -15%, -6%
O=C(CCOc1cccc(Br)c1)Nc1ccc(F)c(S(=O)(=O)N2CCOCC2)c1
    ?, ?
Cn1c(COc2ccc3ccccc3c2)nnc1SCC(=O)O
    -20%, -12%
OC(COc1cccc2ccccc12)CN1CCOCC1 (stereo not drawn)
    -3%, -7%
CC(C)(C)OC(=O)N1CCN(C(=O)c2nc[nH]c2C(=O)N2CCN(C(=O)OC(C)(C)C)CC2)CC1
    -10%, -2%
O=C(NCCc1ccccc1Cl)C1CCN(c2nc3ccccc3nc2C(F)(F)F)CC1
    -9%, -10%
COc1ccc(/C(N)=N/OC(=O)CCCc2ccccc2)cc1
    -9%, -1%
CN(C(=O)COc1ccccc1C(=O)NCCc1ccccc1)c1ccccc1
    1%, -14%
O=C1NCCOC(=O)[C@H](Cc2ccc(F)cc2)C/C=C\C[C@@H]1CC(=O)N(CCO)Cc1ccccc1
    -29%, -19%
COc1ccc(CNS(=O)(=O)c2cn(C)c(=O)n(C)c2=O)cc1
    i, -11%

# A draw from above in order of length of the SMILES, low to high.
# Results follow in this order: Vaccinia mCherry, Vaccinia Venus
Cn1c(COc2ccc3ccccc3c2)nnc1SCC(=O)O
    -20%, -12%
COc1ccc(CNS(=O)(=O)c2cn(C)c(=O)n(C)c2=O)cc1
    i, -11%
COc1ccc(CN2CCNC(=O)C2CC(=O)N(C)CC2CCOCC2)cc1C (stereo not drawn)
    -2%, -13%
CCOc1ccc(S(=O)(=O)N2CCCCC2)cc1NC(=O)CN1C(=O)NC(CC)(c2ccccc2)C1=O (stereo not drawn)
    -13%, -19%
O=C1NCCOC(=O)[C@H](Cc2ccc(F)cc2)C/C=C\C[C@@H]1CC(=O)N(CCO)Cc1ccccc1
    -29%, -19%
CC(C)(C)OC(=O)N1CCN(C(=O)c2nc[nH]c2C(=O)N2CCN(C(=O)OC(C)(C)C)CC2)CC1
    -10%, -2%

# Additional structures follow.
# Results follow in this order: Vaccinia mCherry, Vaccinia Venus
COc1ccc(-n2c(=O)c3c4c(sc3n(CC(=O)NCC3CCCO3)c2=O)CN(C(C)=O)CC4)cc1OC (stereo not drawn)
    -12%, -14%
Cc1cccc(N=Cc2c(O)n(C)c(=O)n(C)c2=O)c1
    i, -4%
O=C(N/N=C/c1ccccc1F)C(=O)N1CCCCCC1
    -13%, 3%
CS(=O)(=O)c1ccc(-c2cn3cc(C(=O)O)ccc3n2)cc1
    9%, 7%
